Screening results (PubChem)
EPAC2 ant val = human EPAC2 antagonism, validation; EPAC2 Rap1B BODIPY-GDP exchange, fluorescence; Potency, µM (highest dose often 112 µM), for the others: at the highest dose activity, negative = inhibition, most hits filed as inhibitors; 16,000 tested, 1.7% active; AID 1645886; Q8WZA2; active = well fitted inhibition curve with a large enough effect; inconclusive = small, poorly fitted or top-dose-only effect; inactive = no such curve, though single readings can be large or run the other way;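 note: 100% = activation by cAMP agonist control; nearly all actives have a fitted effect of over 40% in size; the record reuses the description of the EPAC1 agonist screen; inactives centre near -10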
Target sequence (Q8WZA2 whole entry, looked up): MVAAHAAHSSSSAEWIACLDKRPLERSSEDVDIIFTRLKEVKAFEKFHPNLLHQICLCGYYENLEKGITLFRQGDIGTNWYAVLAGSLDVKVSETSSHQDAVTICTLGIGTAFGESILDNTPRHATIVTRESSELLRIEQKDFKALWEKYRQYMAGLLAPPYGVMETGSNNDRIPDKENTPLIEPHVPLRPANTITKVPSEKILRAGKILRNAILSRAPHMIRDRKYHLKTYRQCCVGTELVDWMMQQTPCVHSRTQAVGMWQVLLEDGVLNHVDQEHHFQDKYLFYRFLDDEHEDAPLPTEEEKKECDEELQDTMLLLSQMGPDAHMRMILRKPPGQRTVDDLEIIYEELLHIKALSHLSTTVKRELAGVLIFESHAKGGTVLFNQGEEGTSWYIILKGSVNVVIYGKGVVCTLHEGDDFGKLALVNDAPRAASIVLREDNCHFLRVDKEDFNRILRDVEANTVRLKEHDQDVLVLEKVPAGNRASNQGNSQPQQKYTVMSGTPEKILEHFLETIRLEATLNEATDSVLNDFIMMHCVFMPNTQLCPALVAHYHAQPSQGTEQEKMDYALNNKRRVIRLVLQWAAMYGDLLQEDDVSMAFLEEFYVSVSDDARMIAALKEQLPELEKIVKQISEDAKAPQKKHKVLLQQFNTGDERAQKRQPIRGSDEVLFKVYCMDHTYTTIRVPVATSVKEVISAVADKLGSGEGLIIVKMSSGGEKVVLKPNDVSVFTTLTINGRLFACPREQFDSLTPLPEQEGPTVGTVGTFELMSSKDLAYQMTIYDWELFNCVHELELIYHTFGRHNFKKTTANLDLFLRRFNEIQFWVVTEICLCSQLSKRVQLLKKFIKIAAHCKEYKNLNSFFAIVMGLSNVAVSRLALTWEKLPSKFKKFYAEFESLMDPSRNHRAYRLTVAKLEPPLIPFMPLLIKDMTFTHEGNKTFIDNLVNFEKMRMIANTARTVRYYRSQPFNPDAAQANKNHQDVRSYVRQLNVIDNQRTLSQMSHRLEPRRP
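Normalized against a 6.5 mM cAMP agonist control, compounds were tested on 100 nM EPAC2 exchanging Rap1B-bound BODIPY-GDP (250 nM) for 50 uM GDP. Fluorescence drop (ex 480, em 540 nm) was tracked at room temperature over 30 min at 5-min intervals.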
The depositor's hits bear a star; ? = inconclusive; & = joins results of further samples; [ ] = dose if it differs, or a comment. Potency is the fitted concentration of half-maximal effect. The list is partial; rates above refer to the full screens.

N#Cc1ccc(CN2CC3(CCN(C(=O)c4cnccn4)CC3)C2)cc1
  EPAC2 ant val = -22%

CCN(CC)CCNC(=O)c1cnn(-c2ncc3c(n2)-c2ccc(OC)cc2CC3)c1C
  EPAC2 ant val = -12%

COc1ncc2nc(-c3ccccc3)c(=O)n(-c3ccccc3)c2n1
  EPAC2 ant val = 0%

COC(=O)C[C@H]1c2cc(F)ccc2S(=O)(=O)N1c1ccc(N(C)C)cc1
  EPAC2 ant val = -26%

Cc1ccc(-n2cc(CCCCCCCCC(=O)O)nn2)cc1
  EPAC2 ant val = ?

COc1ccc(-n2c(=O)c(C)nc3cnc(Nc4ccccc4)nc32)cc1
  EPAC2 ant val = -17%

CC[C@H]1OC(=O)[C@H](C)[C@@H](O[C@H]2C[C@@](C)(OC)[C@@H](O)[C@H](C)O2)C(C)[C@@H](O[C@@H]2O[C@H](C)C[C@H](N(C)C)[C@@H]2O)[C@](C)(OC)C[C@@H](C)C(=O)[C@H](C)[C@@H](O)[C@]1(C)O (stereo not given in full)
  EPAC2 ant val = -35%

CCC(=O)OC1C2CC3=C4CC(=O)OC(c5ccoc5)[C@]4(C)CCC3[C@@](C)(C2=O)C(CC(=O)OC)C1(C)C (stereo not given in full)
  EPAC2 ant val = -14%

CCCCC/C=C\C/C=C\CCCCCCCC(=O)O
  EPAC2 ant val = ?

CCn1c(-c2ccccc2F)nc2cc(NC(C)=O)cc(C(=O)N(C)Cc3cn(C)nc3C)c21
  EPAC2 ant val = -15%

Cc1noc(C)c1C(=O)N1CCC2(CCN(C(=O)NC(C)C)CC2)CC1
  EPAC2 ant val = -15%

Cc1cccnc1-c1cccc2c1OC(CNC(=O)Cn1cncn1)C2 (stereo not given)
  EPAC2 ant val = -29%

COc1c2ccoc2cc2oc(C)cc(=O)c12
  EPAC2 ant val = -23%

Cc1cc(-c2ccnc(-n3ncc(C(=O)NC(C)(C)CO)c3C3CC3)n2)c(C)s1
  EPAC2 ant val = 27%

CC(Oc1ccccc1)C(=O)N[C@@H]1C(=O)N2C(C(=O)O)C(C)(C)S[C@H]12 (stereo not given in full)
  EPAC2 ant val = -1%

Cc1ccnc2ccc(I)cc12
  EPAC2 ant val = -1%

OC1(c2cccnc2)CCN(Cc2ccc3c(c2)CN(Cc2ccc(Cl)cc2)CCO3)CC1
  EPAC2 ant val = ?

C[C@@H](O)[C@H](N)C(=O)O
  EPAC2 ant val = 6%

O=S(=O)(NCc1ccccc1)[C@@H]1CC2C=CC1C2 (stereo not given in full)
  EPAC2 ant val = -18%

C[S+](C)CCC(N)C(=O)O (stereo not given)
  EPAC2 ant val = -15%

COc1ccc(NC(=O)N2CC3(CCN(C(=O)c4cnccn4)CC3)C2)cc1
  EPAC2 ant val = -23%

COc1ccc2cc1Oc1ccc(cc1)C[C@H]1c3cc(c(OC)cc3CCN1C)Oc1c(OC)c(OC)cc3c1[C@H](C2)N(C)CC3
  EPAC2 ant val = ?

COc1ccc(NC(=O)N2CCCC3(CCN(S(C)(=O)=O)CC3)C2)cc1
  EPAC2 ant val = -16%

Cc1sc2ccccc2[n+]1CC(=O)c1ccc(F)cc1
  EPAC2 ant val = 3%

Cc1ccc2c(/C=C/c3ccc(N(C)C)cc3)ccnc2c1C
  EPAC2 ant val = 6%

O=C(C[n+]1cccc(Br)c1)c1ccc(I)cc1
  EPAC2 ant val = -4%

CCCCCc1ccc(-c2cn(CN3C(=O)c4ccccc4C3=O)nn2)cc1
  EPAC2 ant val = -5%

CN(Cc1ccc2c(c1)CN(C(=O)c1cccc(N(C)C)c1)CCO2)Cc1cc(C2CC2)n[nH]1
  EPAC2 ant val = -3%

FC(F)(F)c1ccccc1-c1cncnc1Nc1ccccc1
  EPAC2 ant val = -10%

CO[C@@H]1[C@@H](OC(N)=O)[C@@H](O)[C@H](Oc2ccc3c(O)c(NC(=O)c4ccc(O)c(CC=C(C)C)c4)c(=O)oc3c2C)OC1(C)C
  EPAC2 ant val = 6%[56.6 µM]

CCC1(C2CCN(C(=O)c3cc4ccccc4o3)CC2)NC(=O)N(CCc2scnc2C)C1=O (stereo not given)
  EPAC2 ant val = -25%

O=c1c(CCc2ccccc2)nc2cnc(N3CCNCC3)nc2n1-c1ccccc1
  EPAC2 ant val = 13%

CN(C)c1ccc(C(=C2C=CC(=[N+](C)C)C=C2)c2ccc(N(C)C)cc2)cc1
  EPAC2 ant val = ?

COc1ccccc1CN1CC[C@@]2(CCCN(C(=O)c3cc(C(F)(F)F)cc(C(F)(F)F)c3)C2)C1
  EPAC2 ant val = ?

CC1(C)[C@@H](O)CC[C@]2(C)C3C(=O)C=C4C5C[C@@](C)(C(=O)O)CC[C@]5(C)CC[C@@]4(C)[C@]3(C)CC[C@@H]12 (stereo not given in full)
  EPAC2 ant val = 4µM*

O=C(c1ccco1)N1CCC2(CCCN(c3ccccn3)C2)CC1
  EPAC2 ant val = -25%

O=C(Cc1c[nH]c2ccccc12)N1CCC(n2c(C3CCCO3)nc3cc(C(F)(F)F)ccc32)CC1 (stereo not given)
  EPAC2 ant val = -3%

FC(F)(F)c1ccccc1-c1nc(NCCN2CCOCC2)c2ccccc2n1
  EPAC2 ant val = -15%

COc1ccc(-n2c(=O)c(-c3ccccc3)nc3cnc(N4CCNCC4)nc32)cc1
  EPAC2 ant val = 4%

COC(=O)/C=C\c1cc(O)ccc1O
  EPAC2 ant val = -17%

Cc1ccc(C)c2c(C)ccnc12
  EPAC2 ant val = 4%

Cc1ncc2c(c1CNC(=O)c1ccccc1F)CCN(C(=O)c1csc(-c3cccs3)n1)C2
  EPAC2 ant val = -11%

CC(=O)N1CCC2(CC1)CCN(c1ncccn1)CC2
  EPAC2 ant val = -14%

O=C(c1ccncc1)N1CCC2(CC1)CCN(c1cccc(-c3ccccc3)c1)CC2
  EPAC2 ant val = -32%

C=C1O[C@@](CO)(n2cnc3c(N)ncnc32)[C@H](O)[C@@H]1O
  EPAC2 ant val = -13%[151 µM]

COC(=O)c1ccc(CN2C[C@H](Sc3ccccn3)C[C@H]2C(=O)N(C)C)cc1
  EPAC2 ant val = ?

O=C(c1ccncc1)N1CCC2(CCCN(c3ncccn3)C2)CC1
  EPAC2 ant val = -22%

O=c1c(-c2ccccc2)nc2cnc(Oc3cccc(Cl)c3)nc2n1C[C@H]1CCCO1
  EPAC2 ant val = -18%

CC(=O)N[C@H](CS)C(=O)O
  EPAC2 ant val = -18%

CC(C)CCCC(C)CCCC(C)CCCCC(C)CCCC(C)CCCC(C)C (stereo not given)
  EPAC2 ant val = -9%

COc1ccc2[nH]cc(CCNc3ccnc(-c4ccccc4C)n3)c2c1
  EPAC2 ant val = -37%

C[C@@H]1CCC(=O)N(C[C@@H](C)CSc2ccc(Br)cc2)CC1
  EPAC2 ant val = ?

C[C@H](Cn1cnc2c(N)ncnc21)OCP(=O)(O)O
  EPAC2 ant val = 1%

COC(=O)N1CCC2(CCCN(c3ccccn3)C2)CC1
  EPAC2 ant val = -24%

COc1cccc(-c2oc3ccccc3c(=O)c2O)c1
  EPAC2 ant val = ?

O=S(=O)(c1ccccc1)N1CCC2(CCCN(c3cccc(-c4ccccc4)c3)C2)CC1
  EPAC2 ant val = -7%

COCCn1c(=O)c(-c2cccc(C#N)c2)nc2cnc(N3CCN(C)CC3)nc21
  EPAC2 ant val = 8%

COc1ccccc1CN1CCCC(n2cc(C(=O)N3CCCC3)nn2)C1 (stereo not given)
  EPAC2 ant val = -28%

CC(=O)CCC(=O)N1CCC(n2c(C3CCCO3)nc3cc(C(F)(F)F)ccc32)CC1 (stereo not given)
  EPAC2 ant val = 1%

CN1CCC(=C2c3ccccc3CCc3cccnc32)CC1
  EPAC2 ant val = 7%

Some of the entries above, set out differently.
Compound | EPAC2 ant val
O=c1c(-c2ccccc2)nc2cnc(Oc3cccc(Cl)c3)nc2n1C[C@H]1CCCO1 | -18%
O=S(=O)(c1ccccc1)N1CCC2(CCCN(c3cccc(-c4ccccc4)c3)C2)CC1 | -7%
C[C@H](Cn1cnc2c(N)ncnc21)OCP(=O)(O)O | 1%
CC(=O)N[C@H](CS)C(=O)O | -18%
COC(=O)c1ccc(CN2C[C@H](Sc3ccccn3)C[C@H]2C(=O)N(C)C)cc1 | ?
COCCn1c(=O)c(-c2cccc(C#N)c2)nc2cnc(N3CCN(C)CC3)nc21 | 8%
C[C@@H]1CCC(=O)N(C[C@@H](C)CSc2ccc(Br)cc2)CC1 | ?

Later entries.
CC1CCC2C(C)(C)C3CC12CC[C@]3(C)O (stereo not given in full)
  EPAC2 ant val = -21%

COc1ccc(-c2coc3cc(O)ccc3c2=O)c(O)c1O
  EPAC2 ant val = -2%

COc1cc2c(cc1OC)C(c1c[nH]c3ccccc13)NCC2 (stereo not given)
  EPAC2 ant val = 48%

COc1ccc(-c2c(O)c3c(OC)c4c(cc3oc2=O)OC(C)(C)C=C4)cc1
  EPAC2 ant val = -25%

O=C(c1cscn1)N1CCOc2ccc(CN3CCC(Oc4cccnc4)CC3)cc2C1
  EPAC2 ant val = 5%

Nc1ncnc2c1ncn2[C@@H]1O[C@H](COP(=O)(O)OP(=O)(O)OC[C@H]2OC(O)[C@H](O)[C@@H]2O)[C@@H](O)[C@H]1O (stereo not given in full)
  EPAC2 ant val = 10%

CCCCN(CCCC)C(=S)[S-].CCCCN(CCCC)C(=S)[S-].[Zn+2]
  EPAC2 ant val = 21%

C=CCc1ccc(O)c(OC)c1
  EPAC2 ant val = -9%&-13%&-15%

N#Cc1cccc(-c2nccc(NCc3cccs3)n2)c1
  EPAC2 ant val = -22%

CS(=O)(=O)Nc1c(O)ccc2c1CCCC2C1=NCCN1 (stereo not given)
  EPAC2 ant val = ?

COc1ccccc1-c1nccc(NCc2ccccc2)n1
  EPAC2 ant val = -12%

COc1ncc2nc(CCc3ccccc3)c(=O)n(Cc3ccc(F)cc3)c2n1
  EPAC2 ant val = ?

C=CCN1[C@@H](C(C)C)COCCS1(=O)=O
  EPAC2 ant val = ?

FC(F)(F)c1ccccc1-c1cc(NCc2cccnc2)ncn1
  EPAC2 ant val = -14%

Cc1cnc(-n2ncc(C(=O)NCc3cccnc3)c2C)nc1-c1ccc(F)cc1
  EPAC2 ant val = -14%

Among those listed so far, 6 contain a CF3 group.
FC(F)(F)c1ccccc1-c1cncnc1Nc1ccccc1
  EPAC2 ant val = -10%

COc1ccccc1CN1CC[C@@]2(CCCN(C(=O)c3cc(C(F)(F)F)cc(C(F)(F)F)c3)C2)C1
  EPAC2 ant val = ?

O=C(Cc1c[nH]c2ccccc12)N1CCC(n2c(C3CCCO3)nc3cc(C(F)(F)F)ccc32)CC1 (stereo not given)
  EPAC2 ant val = -3%

FC(F)(F)c1ccccc1-c1nc(NCCN2CCOCC2)c2ccccc2n1
  EPAC2 ant val = -15%

CC(=O)CCC(=O)N1CCC(n2c(C3CCCO3)nc3cc(C(F)(F)F)ccc32)CC1 (stereo not given)
  EPAC2 ant val = 1%

FC(F)(F)c1ccccc1-c1cc(NCc2cccnc2)ncn1
  EPAC2 ant val = -14%

Following part.
COc1ccc2[nH]cc(CCNc3cc(-c4ccccc4Cl)ncn3)c2c1
  EPAC2 ant val = ?

COc1ccc(-c2nc3cnc(Nc4ccccc4)nc3n(C[C@H]3CCCO3)c2=O)cc1
  EPAC2 ant val = 9%

Cc1ccccc1-c1nc(Nc2ccncc2)c2ccccc2n1
  EPAC2 ant val = -18%

N[C@H](Cc1c[nH]c2ccccc12)C(=O)O
  EPAC2 ant val = -1%

NCCC(O)(P(=O)(O)O)P(=O)(O)O
  EPAC2 ant val = -9%

CN(C)c1nc(CN2CCCCC2c2cccnc2)nc2ccccc12 (stereo not given)
  EPAC2 ant val = -20%

CC1=C(/C=C/C(C)=C\C=C\C(C)=C\C(=O)O)C(C)(C)CCC1
  EPAC2 ant val = -17%[11.4 µM]

CC(C)C(NC(=O)c1ccoc1)c1nnc2n1CCN(Cc1ccc3c(c1)Cc1ccccc1-3)CC2 (stereo not given)
  EPAC2 ant val = ?

Cc1nc(C)c(C(=O)NCc2nc(-c3cccc(NC(=O)c4ccccn4)c3)oc2C)s1
  EPAC2 ant val = -17%

CN(C)[C@@H]1C(=O)C(C(N)=O)=C(O)[C@@]2(O)C(=O)C3=C(O)c4c(O)ccc(Cl)c4[C@@H](O)[C@H]3C[C@@H]12
  EPAC2 ant val = 25%&2%

O=C(c1ccccc1C(F)(F)F)N1CCOc2c(cc(-c3nc4ccccc4s3)cc2OC2CCOC2)C1 (stereo not given)
  EPAC2 ant val = -17%

NCC1OC(OC2C(N)CC(N)[C@@H](O)[C@@H]2OC2O[C@H](CO)[C@@H](O[C@@H]3OC(CN)C(O)C(O)C3N)C2O)C(N)C(O)C1O (stereo not given in full)
  EPAC2 ant val = -16%

CCCCCCCCCCCCCCCC[N+](C)(C)CCN(Cc1ccc(OC)cc1)c1ncccn1
  EPAC2 ant val = -13%[56.6 µM]

Brc1ccccc1-c1ccccc1
  EPAC2 ant val = 74%[activator][239 µM]

C[N+]1(Cc2ccccc2)CCC(C(=O)OCC2CCCC2)CC1 (stereo not given)
  EPAC2 ant val = -8%

Cc1cc(-c2ccnc(-n3ncc(C(=O)NCC4CCCO4)c3C3CC3)n2)c(C)s1 (stereo not given)
  EPAC2 ant val = -12%

Cc1ccccc1CN1[C@@H]2c3ccccc3C[C@@H]2OCCS1(=O)=O
  EPAC2 ant val = ?

CCNc1ncc2nc(-c3ccc(F)cc3)c(=O)n(CCc3ccccc3)c2n1
  EPAC2 ant val = -24%

O=C1CCN(CCc2ccccc2)CCN1[C@H](CSc1ccccc1)Cc1ccccc1
  EPAC2 ant val = -18%

O=C(c1cccc(F)c1)N1CCC[C@@]2(CCN(Cc3nccs3)C2)C1
  EPAC2 ant val = -15%

Cc1nc2cncnc2n(Cc2ccccc2)c1=O
  EPAC2 ant val = 3%
